Screening results deposited in PubChem BioAssay by Johns Hopkins Ion Channel Center.
KCNQ2 pot = potentiators of rat KCNQ2 potassium channel; actives 0.54% (n = 310,000); B-score at 10 µM; CHO-K1 KCNQ2, FluxOR thallium flux fluorescence; hits give high values; O88943;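 active = fluorescence ratio B-score at least 3 SD of library B-scores, with initial fluorescence B-score within 3 SD, cut at about 5.3 in these data; same plate scores as AID 2156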;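 also: B-score of peak minus minimum over baseline fluorescence ratio after K+ and Tl+ stimulus; positive B-score means potentiation of KCNQ2 with more thallium influx and brighter signal; only the inactives scoring about 0 or higher are listed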
Target sequence (O88943 whole entry, looked up): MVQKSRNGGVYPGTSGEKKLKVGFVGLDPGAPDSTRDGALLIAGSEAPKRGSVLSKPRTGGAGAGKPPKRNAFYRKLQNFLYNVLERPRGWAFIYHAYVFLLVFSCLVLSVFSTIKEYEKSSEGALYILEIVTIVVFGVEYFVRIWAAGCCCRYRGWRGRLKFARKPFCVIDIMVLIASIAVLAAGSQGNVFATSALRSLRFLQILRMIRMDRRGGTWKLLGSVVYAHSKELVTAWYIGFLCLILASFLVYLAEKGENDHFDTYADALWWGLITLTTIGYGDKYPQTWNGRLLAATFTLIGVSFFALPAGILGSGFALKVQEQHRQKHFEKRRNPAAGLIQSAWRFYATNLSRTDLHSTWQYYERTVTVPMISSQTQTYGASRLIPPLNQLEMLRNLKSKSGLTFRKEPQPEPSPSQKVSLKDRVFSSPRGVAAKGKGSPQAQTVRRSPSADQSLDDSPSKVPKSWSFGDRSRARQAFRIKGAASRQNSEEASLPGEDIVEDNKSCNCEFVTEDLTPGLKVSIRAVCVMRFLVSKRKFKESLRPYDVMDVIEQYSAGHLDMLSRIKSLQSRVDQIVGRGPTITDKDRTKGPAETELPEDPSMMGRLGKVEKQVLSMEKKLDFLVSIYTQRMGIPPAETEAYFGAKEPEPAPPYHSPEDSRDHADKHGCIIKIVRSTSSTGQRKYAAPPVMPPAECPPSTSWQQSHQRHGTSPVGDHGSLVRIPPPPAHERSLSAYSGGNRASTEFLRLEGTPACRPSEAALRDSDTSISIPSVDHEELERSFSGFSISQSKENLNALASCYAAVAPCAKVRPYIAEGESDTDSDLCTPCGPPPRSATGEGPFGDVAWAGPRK
KCNQ2 pot baseline = recorded beside KCNQ2 pot, whose call it bears; B-score; compound at 10 µM; measured here: initial fluorescence intensity artifact check;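 brightness before thallium and not channel activity; 0 = typical well and far values either way flag optical interference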
The depositor's hits bear a star; & = joins results of further samples. The list is partial; rates above refer to the full screens.

Every second line gives: KCNQ2 pot	KCNQ2 pot baseline
> CCSc1ccc2nnc(-c3ccc(F)cc3)n2n1
  1.28	-2.16
> Cc1ccc(C2CC(c3cccs3)=NN2C(=O)c2ccco2)o1 (centres undefined)
  1	-1.65
> O=C(Nc1ccc(Cl)cc1)C1CCC(=O)N1Cc1ccccc1Cl (centres undefined)
  0.11	-2.36
> O=C(Cc1cccs1)NCCn1ccc2ccccc21
  2.01	1.51
> CCOC(=O)c1nc(C)[nH]c1C(=O)OCC
  0.8	-3.02
> O=C(NCc1cccs1)C1CCN(S(=O)(=O)c2cccc3nsnc23)CC1
  0.7	0.71
> Cn1c(=O)c2c(ncn2CC(=O)Nc2ccc(Cl)cc2Cl)n(C)c1=O
  0.38	0.61
> COCCOC(=O)C1=C(C)NC2=C(C(=O)CC(C)(C)C2)C1c1ccc2c(c1)OCO2 (centres undefined)
  0.93	1.78
> Cc1ccc2nc(Nc3ncc4c(n3)CC(C)(C)CC4=O)nc(C)c2c1
  0.03	-0.02
> CCOC(=O)c1cc2c(=O)[nH]ccc2nc1C
  0.78	-0.47
> C/C(=N\Nc1ccccn1)c1ccc(Br)s1
  2.02	2.08
> COc1ccc(C(=O)Nc2ccc(S(=O)(=O)NC(C)=O)cc2)cc1
  0.56	-0.24
> COC(=O)c1cc(=O)n(Cc2ccccc2)c(=NCc2ccccc2)s1
  0.39	2.78
> Cc1cccc(OCC(O)Cn2c(NCCCOC(C)C)nc3c2c(=O)[nH]c(=O)n3C)c1 (centres undefined)
  1.48	-0.9
> COc1cc(/C=C2\CCOC2=O)cc(OC)c1OC
  2.12	-0.33
> Cc1ccc(/C=N/NC(=O)c2nnn(-c3nonc3N)c2CN(C)C)s1
  0.81	-0.77
> CCOc1ccccc1NC(=O)C(=O)NCCC1=CCCCC1
  0.38	-0.35
> Cc1nn2c3ccccc3n(CC(=O)c3cccs3)c2nc1=O
  0.59	-1.58
> CC(C)NC(=S)Nc1ccc(S(=O)(=O)Nc2ncccn2)cc1
  1.03	-1.43
> COc1ccc(-c2ccnc3[nH]n(-c4ccccc4)c(=O)c23)cc1
  0.52	-0.5
> CC(=O)NS(=O)(=O)c1ccc(NC(=O)CC23CC4CC(CC(Br)(C4)C2)C3)cc1
  0.16	0.35
> COC(=O)c1cnc2c(c1C(=O)OC)c(=O)n(C)c(=O)n2C
  0.79	0.66
> COC(=O)C1=C(C)NC(=O)NC1c1ccc2ccccc2c1 (centres undefined)
  2.36	-0.16
> Cc1nc(SCc2cccc(F)c2)[nH]c(=O)c1C#N
  1.73	0.17
> CC(=O)Nc1ccc(S(=O)(=O)NNC(=O)NC23CC4CC(CC(C4)C2)C3)cc1
  1.26	-0.23
> Nc1nnc(SCc2cn3cc(Cl)ccc3n2)s1
  2.29	-0.79
> CCCC[C@H]1COCCS(=O)(=O)N1Cc1cccc(Cl)c1
  0.03	-0.29
> N#CCSc1nnc(-c2cnccn2)n1Cc1ccccc1
  0.05	1.37
> COc1ccc(C2NC(=S)NC(C)=C2C(=O)Nc2ccccn2)cc1OC (centres undefined)
  0.76	-2.22
> CS(=O)(=O)c1ccc(Cl)c(NC(=O)C2CC(=O)N(Cc3ccco3)C2)c1 (centres undefined)
  2.25	0.33
> COC(=O)C1=C(C)Nc2nc3ccccc3n2C1c1cc(OC)c(OC)c(OC)c1 (centres undefined)
  0.74	-0.7
> Nc1c(/C=C2\C=Nc3ccccc32)c(=O)nc2sc(CC(=O)N3CCOCC3)nn12
  1.32	-0.39
> CCC(CC)C(=O)Nc1cc(C)c2c(=O)oc3ccccc3c2n1
  1.71	-0.08
> CCOc1cc(/C=C\c2nc(O)c([N+](=O)[O-])c(=O)[nH]2)ccc1OC(C)C
  0.16	0.01
> Cc1nccn1CCCNCc1c(C(=O)N2CCCCCCC2)nc2ccc(Cl)cn12
  0.83	-0.21
> Cc1ccc(S(=O)(=O)N2CCC(=O)N(CCO)CC2)cc1
  0.26	-1.48
> CNC(=O)COC(=O)c1cc(F)c(F)cc1Cl
  0.67	0.19
> CCOC(=O)c1c(C)[nH]c(C)c1S(=O)(=O)N(C)CC(=O)Nc1ccccc1C
  1.9	1.49
> COCCN(C(=S)Nc1c(C)cccc1C)C(C)c1cccnc1 (centres undefined)
  0.95	-0.02
> CCOc1ccccc1/C=N/Nc1nc2c(N)ncnc2n1[C@H]1O[C@@H](CO)[C@H](O)[C@@H]1O
  0.45	0.02
> COc1ccc(-c2cn(-c3ccc(OC)cc3)c(=S)[nH]2)cc1
  0.11	-0.74
> COc1cc(C2SCC(=O)N2CCc2ccc(OC)c(OC)c2)ccc1O (centres undefined)
  0.33	-3.22
> Cc1cccc(C(=O)O/N=C/c2c(N3CCOCC3)n(C)c3ccccc23)c1
  0.48	1.61
> O=C(CSc1nc2ccccc2c(=O)n1-c1ccc(F)cc1F)Nc1ccc2c(c1)CCC2
  0.02	-0.07
> O=C(CCc1nnc(C2CCCCC2)o1)N1CCC(Oc2cccnc2)CC1
  1.91	-1.48
> COCCNC(=O)C1c2ccccc2C(=O)N(CCOC)C1c1ccc(F)cc1 (centres undefined)
  0.98	-1.79
> COc1ccc(N2CCN(CC(=O)c3ccc(O)cc3O)CC2)cc1
  0.84	1.54
> O=c1[nH]c2ccccc2nc1/C=C(\O)C1CC1
  1.05	-0.02
> O=C(O)c1c2c(nc3ccc(S(=O)(=O)N4CCC(C(=O)NCc5ccccc5Cl)CC4)cc13)CCCC2
  0.23	-1.98
> Cc1nc2ccc(NC(=O)C3COc4ccccc4O3)cc2s1 (centres undefined)
  0.19	1.43

Complete entries as entered above. Screens in order: KCNQ2 pot, KCNQ2 pot baseline
`O=C(O)c1c2c(nc3ccc(S(=O)(=O)N4CCC(C(=O)NCc5ccccc5Cl)CC4)cc13)CCCC2` in the list: 0.23, -1.98
`O=C(CSc1nc2ccccc2c(=O)n1-c1ccc(F)cc1F)Nc1ccc2c(c1)CCC2` in the list: 0.02, -0.07
`COc1ccc(-c2cn(-c3ccc(OC)cc3)c(=S)[nH]2)cc1` in the list: 0.11, -0.74
`COc1cc(C2SCC(=O)N2CCc2ccc(OC)c(OC)c2)ccc1O` (centres undefined) in the list: 0.33, -3.22
`O=C(CCc1nnc(C2CCCCC2)o1)N1CCC(Oc2cccnc2)CC1` in the list: 1.91, -1.48

Carrying on:
Every second line gives: KCNQ2 pot	KCNQ2 pot baseline
> COc1ccc(S(=O)(=O)NCc2cccnc2)cc1NC(=O)c1ccc(C)cc1
  1.02	-1.51
> C[C@@H](CN=[N+]=[N-])CN1CC[C@H](C(C)(C)C)CCC1=O
  0.1	1.05
> CCCC(C(=O)NCCC(C)C)N(Cc1ccc(F)cc1)C(=O)c1snc(C(N)=O)c1N (centres undefined)
  3.48	-0.53
> COc1ccc(CNC(=O)Cc2nn(C)c(=O)c3ccccc23)cc1
  1.62	0.84
> CCN(CC)C(=O)c1ccc(-c2nnc(Nc3ccc(C(=O)N(C)C)cc3)c3ccccc23)cc1
  0.21	0.33
> COCCCNC(=O)Cc1c(C)c2c(cc(C)c3c(C(C)(C)C)coc32)oc1=O
  0.92	-0.02
> O=C(CSc1nnnn1-c1ccccc1)N1N=CCC1c1ccccc1 (centres undefined)
  0.03	-1.23
> O=C(O)c1cc(N2C(=O)CCC2=O)ccc1Cl
  0.03	0.03
> COCCNS(=O)(=O)c1cc(C(=O)O)ccc1OC
  0.56	-2.53
> Cc1ccc(OCC(=O)NNC(=O)C2CC(=O)N(c3ccc4c(c3)OCCO4)C2)cc1 (centres undefined)
  0.07	0.42
> CCn1c(=O)n(CC)c2cc(N3CCCC3)c(NC(=O)c3ccccc3Br)cc21
  1.41	-0.57
> Cc1ccccc1C(=O)Nc1nnc(S(=O)(=O)N2CCCCC2)s1
  0.53	-1.69
> COc1ccc(C(C(=O)NCC2CCCO2)N(Cc2ccccc2)C(=O)CNC(=O)c2ccco2)cc1OC (centres undefined)
  0.61	-1.42
> COCCC(=O)N1CCCC(CNS(=O)(=O)c2ccc(OC)cc2)C1 (centres undefined)
  1.64	-1.77
> COC(=O)[C@H](Cc1ccccc1)NC(=O)N1CCN(Cc2ccccc2)CC1
  0.14	-0.33
> Cc1nnc(NC(=O)CSc2nnc(C)c(=O)n2N)s1
  0.31	-0.87
> CCOC(=O)N1CCN(C(=O)CN(c2ccc(OCC)cc2)S(C)(=O)=O)CC1
  0.01	0.01
> CC(=O)N(NC(=O)c1ccc(C)cc1)C1CC(=O)N(c2ccccc2Cl)C1=O (centres undefined)
  0.32	2.64
> Cc1ccc(NC(=O)Nc2ccc([N+](=O)[O-])cc2)nc1
  0.28	-0.5
> CC(=O)Nc1ccc(NC(=O)C2CCCN2C(=O)Nc2ccc(F)cc2)cc1 (centres undefined)
  2.31	0.04
> On1nnc2ccccc21
  0.26	1.71
> CC1Cc2ccccc2N1C(=O)CSc1nnc(N)s1 (centres undefined)
  0.19	-0.25
> COc1ccc(NC(=O)n2ncc3cc(Cl)ccc32)cc1OC
  0.46	-1.06
> Cc1nn(C(C)C(=O)NCCCN(Cc2ccccc2)C(C)C)c(=O)c2c1sc1ccccc12 (centres undefined)
  0.8	-0.78
> Cc1nnc(Cn2cnc3c2c(=O)n(C)c(=O)n3C)o1
  0.92	-1
> Cc1cc(C(=O)NNC(=O)c2cccs2)nn1C(C)(C)C
  1.29	-0.08
> C=CCOc1c(CNn2cn[nH]c2=S)cccc1OC
  1.06	0.86
> Cc1ccccc1OCC(O)Cn1c(=N)n(CCN2CCOCC2)c2ccccc21 (centres undefined)
  1.08&0.07	0.14&0.96
> NC(=O)COC(=O)c1cccc(S(=O)(=O)N2CCCc3ccccc32)c1
  0.57	-1.11
> NS(=O)(=O)c1cccc(NC(=O)CN2CCN(Cc3ccc4c(c3)OCO4)CC2)c1
  0.91	-1.09
> CC(C)NC(=O)C1CC(=O)N(C(C)c2ccccc2)C1 (centres undefined)
  0.2	1.43
> O=C(CCNC(=O)c1ccccc1Cl)Nc1nc(-c2ccc3ccccc3c2)cs1
  0.01	-1.14
> CCOC(=O)N1CCC(Nc2nc3ccccc3n3nnnc23)CC1
  1.5	0
> CCn1cc(C(=O)N[C@@H](CCSC)C(=O)NCCCN2CCOCC2)c(=O)c2cc3c(cc21)OCO3
  0.05	0.22
> O=C(NC1CCCC1)c1cccc(Cn2cc([N+](=O)[O-])cn2)c1
  0.36	0.88
> Cc1nc(C(C)NC(=O)CCc2nnc(-c3ccsc3)o2)cs1 (centres undefined)
  1.33	-0.26
> Cc1cc(NC(=O)c2cccc(F)c2)no1
  0.28	1.15
> COc1ccc2nc(NC(=O)CN3CCOCC3)sc2c1
  0.12	-1.36
> C/C=C(/C)C(=O)O[C@H]1[C@@H](O)c2c(ccc3ccc(=O)oc23)OC1(C)C
  1.27	1.46
> CC1(C)CC(=O)c2c(Cc3ccccc3)n[nH]c2C1
  0.33	-0.94

3 compounds from above, ordered by their value in KCNQ2 pot, descending.
Every second line gives: KCNQ2 pot	KCNQ2 pot baseline
> CCOC(=O)N1CCC(Nc2nc3ccccc3n3nnnc23)CC1
  1.5	0
> Cc1cc(NC(=O)c2cccc(F)c2)no1
  0.28	1.15
> COc1ccc2nc(NC(=O)CN3CCOCC3)sc2c1
  0.12	-1.36

Next part.
Every second line gives: KCNQ2 pot	KCNQ2 pot baseline
> CCCCN(C(=O)c1ccc(S(=O)(=O)N2CCC(C)CC2)cc1)C1CCS(=O)(=O)C1 (centres undefined)
  0.34	0.53
> O=c1cc2c(n[nH]1)-c1ccccc1CC2
  0.22	0.01
> CC(=O)Nc1ccc(-c2ccc(NC(C)=O)c(O)c2)cc1O
  0.12	1.39
> COc1cc(C2(c3ccc(O)c(OC)c3)C(=O)Nc3c(Br)cc(Br)cc32)ccc1O
  0.16	4.08
> Cc1ccc(N(CC(=O)N2CCOCC2)S(=O)(=O)c2ccccc2)cc1
  2.13	-0.06
> O=C(C1=C(O)C(=O)N(CCOCCO)C1c1cccc([N+](=O)[O-])c1)c1cccs1 (centres undefined)
  0.63	0.84
> Cc1ccc(N2CCN(C(=O)N3CCCC3)CC2)cc1Cl
  0.02	2.99
> CCCc1ccc(C(=O)O/N=C(\N)c2ccccn2)cc1
  0.02	-0.01
> C/C=C/C=[N+](\[O-])C(C)/C(=N/O)c1ccc(F)cc1 (centres undefined)
  0.48	-0.14
> CCCc1nnc(NC(=O)c2c(O)c3c([nH]c2=O)CCCC3)s1
  1.77	-2.62
> O=C(Cc1ccccc1)c1ccc(Cl)cc1
  0.46	0.68
> Cc1cccc(NC(=O)Nc2cnccn2)c1
  1.15	-0.01
> Cc1cccc2cc(CN(CC3CCCO3)C(=O)c3cccnc3)c3nnnn3c12 (centres undefined)
  0.08	-1.51
> CCC(=O)N1CCN(c2ccc(NC(=S)NC(=O)c3cc4ccccc4o3)cc2)CC1
  2.96	-1.72
> CC(=O)Nc1ccc(S(=O)(=O)N(CCc2ccccc2)CC(=O)N/N=C/c2ccc(C(=O)O)cc2)cc1
  0.05	-0.72
> COc1cccc(NC(=O)COc2ccccc2)c1
  1.53	-0.5
> COc1ccc(C(=O)NC(=S)Nc2ccccc2[N+](=O)[O-])cc1OC
  0.46	-0.75
> Cc1cc(=O)[nH]c2nnc(SCC(=O)N3CC(C)OC(C)C3)n12 (centres undefined)
  0.61	1.05
> COc1cc(CC(=O)Nc2cccc(C(F)(F)F)c2)cc(OC)c1OC
  1.01	-0.57
> CC(=O)Nc1ccc(-c2csc(NC(=O)C3CCN(S(=O)(=O)c4cccs4)CC3)n2)cc1
  0.04	2.19
> CC1Sc2ccc(S(=O)(=O)NCCc3ccc(S(N)(=O)=O)cc3)cc2NC1=O (centres undefined)
  0.26	-2.05
> O=S(=O)(CCc1nc2ccccc2s1)c1ccc(Cl)cc1
  1.63	-1.51
> Cc1c(NC(=O)Nc2ccc3c(c2)OCO3)c(=O)n(-c2ccccc2)n1C
  0.74	-0.02
> COC(=O)c1ccc(NC(=S)NCCc2ccc(OC)cc2)cc1
  0.63	0.53
